NPYLR7 agonist: mosquito NPYLR7 agonism | HEK293T NPYLR7/Galpha15, GCaMP6s calcium fluorescence | activation, % at 10 µM | 270,000 compounds, 0.15% hits; in the data active means activation above about 40%;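 further: 0% = vehicle and 100% = reference agonist at the receptor; some compounds past the cut are filed as inactive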
NPYLR7 agonist max-min: also measured in NPYLR7 agonist; calls as there; activation, %; measured here: Max-Min RFU normalised activation; some inactives read as strong as hits;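 span of the calcium signal over five minutes; 0% = vehicle and 100% = native peptide agonist; compound fluorescence can raise it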
The depositor's hits bear a star; & = joins results of further samples. Only part of the results is shown, so the mix of outcomes need not match the whole.

Sequence of screens – NPYLR7 agonist, NPYLR7 agonist max-min
- O=C(Nc1ccc(I)cc1)Nc1cccc2ccccc12
 : 7, 6
- NC(=O)c1cc[n+](CC2=C(C(=O)O)N3C(=O)[C@@H](NC(=O)[C@@H](c4ccccc4)S(=O)(=O)O)[C@H]3SC2)cc1
 : -2&6, -9&-4
- O=c1c(Cl)cc(C(F)(F)F)cn1CCCc1ccccc1
 : 7, 5
- Cc1ccn2cc(C(=O)NC(C)c3ccc4c(c3)CCC(=O)N4)nc2c1 (centres undefined)
 : 0, 6
- CC(C)(C)c1ccc(C(=O)N2CCC(CO)(Cc3cccc(C(F)(F)F)c3)CC2)cc1
 : 7, 10
- COc1coc(CNc2ccccc2NC(=O)c2ccccc2)cc1=O
 : 0, -3
- COc1cccc(C(=O)Nc2c(C)nc3sccn3c2=O)c1
 : 15, 5
- O=C(CSc1nccn2nc(-c3ccccc3)cc12)NC1CCCCC1
 : -3, -8
- CCc1nc(C2NC(=O)CN2Cc2ccc(Br)cc2)cs1 (centres undefined)
 : 2, 0
- COc1cc2nc(-c3cc([N+](=O)[O-])ccc3Cl)oc(=O)c2cc1OC
 : 13, 5

In the list so far, 3 contain an aryl methoxy group:
Sequence of screens – NPYLR7 agonist, NPYLR7 agonist max-min
- COc1coc(CNc2ccccc2NC(=O)c2ccccc2)cc1=O
 : 0, -3
- COc1cccc(C(=O)Nc2c(C)nc3sccn3c2=O)c1
 : 15, 5
- COc1cc2nc(-c3cc([N+](=O)[O-])ccc3Cl)oc(=O)c2cc1OC
 : 13, 5

Next compounds
Sequence of screens – NPYLR7 agonist, NPYLR7 agonist max-min
- COCCOC(=O)C1=C(C)N(C)C(=S)NC1c1ccc(NS(=O)(=O)c2ccc(F)cc2)cc1 (centres undefined)
 : 5, 11
- CCS(=O)(=O)N1CCC(NC(=O)c2ccccc2C(=O)c2ccc(C)cc2)CC1
 : 0, -1
- COC(=O)CC12CC3CC(C1)CC(C(=O)OC)(C3)C2
 : -3, -10
- CCCCC(=O)NCc1cccc(OCCN(C)C2CCOCC2)c1
 : -1, -7
- Cc1noc(C)c1NC(=O)N1CCN(C(c2ccccc2)c2ccc(Cl)cc2)CC1 (centres undefined)
 : -17, -19
- COC(=O)c1c(C)nc(C(F)(F)F)c(C#N)c1N
 : 9, 13
- COc1cccc(C(CN2CCN(S(=O)(=O)c3cccc(Cl)c3)CC2)OCc2ccc(C#N)cc2)c1 (centres undefined)
 : 32, 19
- CCc1cccc(CC)c1NC(=O)Cn1cnc2c(cnn2C)c1=O
 : -9, -10
- CC(C#N)c1cccc(C(=O)N2CCOC(COCc3cccc(C(F)(F)F)c3)C2)c1 (centres undefined)
 : 27, 24
- O=C1CCCN1CC1CCCN(Cc2nc(COc3ccccc3)no2)C1 (centres undefined)
 : -2, -4
- O=C(NCC1CCCO1)C(C1CCCC1)N1CCN(C(=O)Nc2cccc(F)c2)CC1 (centres undefined)
 : -8, -4
- COc1cc(CN2CCn3nc(C(=O)NC4CCCc5ccccc54)cc3C2=O)cc(OC)c1 (centres undefined)
 : 15, 5
- Fc1ccc(/C=N\Nc2nc(N3CCOCC3)nc(N3CCOCC3)n2)cc1
 : -5, -13
- Cc1cccc(C(C(=O)NCc2cc(-c3ccco3)on2)N(C)C)c1 (centres undefined)
 : 3, 0
- CCOCCCN(CC(=O)N(CCc1ccc(OC)c(OC)c1)Cc1ccc(C)s1)C(=O)c1cccc(C(F)(F)F)c1
 : -5, 1
- CCCCCCCCS(=O)(=O)N1CCc2nc(Cc3cccc(C)c3)nc(N3CCOCC3)c2C1
 : 1, 9
- CC(C)S(=O)(=O)Oc1ccc(CN(CC2CCCO2)C(=O)c2ccccc2Cl)cc1 (centres undefined)
 : -6, 4
- O=C(c1ccc(Cl)cc1)N(Cc1nccn1Cc1ccc(Cl)cc1Cl)C1CC1
 : 20, 29
- CNc1cccc(-c2ccccc2C(C)=O)n1
 : 3, 1
- OC1CCCN(c2ncccc2CNC2CCSCC2)C1 (centres undefined)
 : 2, -3
- CCCN(Cc1c(C)nn(-c2ccccc2)c1N1CCN(C)CC1)C(=O)Nc1cccc(Cl)c1
 : 15, 26
- CCOc1ccnc(N2CCN(C3CCCC3)C(=O)C2)n1
 : -2, -12
- CCC(C)N(Cc1ccc(OS(=O)(=O)c2cccc(C(F)(F)F)c2)cc1)C(=O)Nc1ccc(C)cc1C (centres undefined)
 : 7, 16
- CN1C(=O)C(=O)c2cc(Cl)cc(Cl)c21
 : -3, -2
- Cc1c(C)n2c3c(=O)n(C)c(=O)n(C)c3nc2n1CC(=O)c1ccc(F)cc1
 : 11, 5
- COc1ccc(-n2c(CCC(=O)NCCCN3CCOCC3)ccc2-c2ccc(Cl)cc2)cc1
 : 0, -2
- COc1ccc(OCCNC(=O)C2(C)CCN2Cc2ccc(OC)c3ccccc23)cc1 (centres undefined)
 : 6, 2
- CCCCC(=O)O[C@H]1CC[C@H]2[C@@H]3CCc4cc(O)ccc4[C@H]3CC[C@]12C
 : 9, -3
- CCOCCCN(CC(=O)N(Cc1cccn1Cc1ccccc1)C1CCCCC1)S(=O)(=O)c1ccc(Cl)cc1
 : 1, 12
- CCC(=O)N1CCN(c2cc(Cl)nc(SCC(=O)NC(C)C)n2)CC1
 : 6, 6
- Cc1ccc(OCC(N)=O)c(-c2ccc(S(C)(=O)=O)cc2)c1
 : -6, -6
- COCCCN1C(=O)N(Cc2ccc3ccccc3c2)C(=O)C12CCN(CC1CC=CCC1)CC2 (centres undefined)
 : 4, -5
- Cn1cccc1C1CCCCCN1C(=O)Cc1c[nH]c2ccccc12 (centres undefined)
 : -5, -6
- Cc1nc(CCC(=O)N2CCC(c3[nH]ncc3-c3cccc(F)c3)CC2)n[nH]1
 : -11, -13
- O=C(NCCN1CCCCC1)c1csc(CSc2nnc(-c3ccco3)n2-c2ccccc2F)n1
 : -4, 4
- C=CCN=c1scc(-c2ccc(Br)s2)n1N=Cc1ccccn1
 : 3, 1
- CCOc1ccccc1/C=C/C(=O)Nc1ccc(C(=O)N(C)C)cc1
 : -1, -2
- CC(C)Cc1nc(CCCN2CCCCC2=O)n(-c2ccccc2)n1
 : 0, -3
- O=C1C2C3C=CC(CO)(O3)C2C(=O)N1c1ccc(F)cc1 (centres undefined)
 : 3, -2
- CCCCCCn1c(CN2CCCCC2C)nc2c1c(=O)n(C)c(=O)n2C (centres undefined)
 : -16, -16
- C=CCN(Cc1ccc(C)s1)C(=O)[C@@H](N)c1ccccc1Cl
 : 3, 4
- O=C(NCc1ccccc1F)N1CCN(C(=O)c2ccco2)CC1
 : 13, 12
- NC(=O)C1Cc2ccccc2CN1CC(=O)N1CCc2sccc2C1 (centres undefined)
 : -1, -2
- O=c1[nH]nc(Cc2c[nH]c3ccccc23)n1CCc1ccccc1F
 : 7, 4
- O=C(CCc1c[nH]c2ccccc12)N1CCCC(O)(CO)CC1 (centres undefined)
 : 5, 5
- CN1CCNC(=O)C12CCN(c1ccnc3c(C(F)(F)F)cccc13)CC2
 : 18, 11
- Cc1ccc2c(c1NCCc1ccccc1)C(=O)c1ccccc1C2=O
 : -3, -9
- CC(C)c1cccc(O)c(=O)c1
 : 3, -3
- CCCCOC(=O)CCc1c(C)[nH]c(=O)c(C#N)c1C
 : 10, 3
- O=C(c1cc2ccccc2nc1N1CCCC1)N1CCCC(N2CCCC2)C1 (centres undefined)
 : 8, 5

Two compounds drawn at random from those above, as already listed:
Sequence of screens – NPYLR7 agonist, NPYLR7 agonist max-min
- O=C(CCc1c[nH]c2ccccc12)N1CCCC(O)(CO)CC1 (centres undefined)
 : 5, 5
- CN1CCNC(=O)C12CCN(c1ccnc3c(C(F)(F)F)cccc13)CC2
 : 18, 11

(continued)
Sequence of screens – NPYLR7 agonist, NPYLR7 agonist max-min
- Clc1ccc2nc(N3CCN(c4ccccn4)CC3)c3nncn3c2c1
 : 13, 3
- Cc1cc(NC(=O)CN(Cc2ccco2)Cc2cccs2)no1
 : 1, 28
- CC(=NNc1nc2ccccc2s1)c1cc2ccccc2o1
 : 9, 7
- COc1ccc2[nH]c3c(c2c1)CCN(C(=O)c1cc(Cl)ccc1F)C3c1ccc(C(F)(F)F)cc1 (centres undefined)
 : 19, 8
- Cc1ccc(F)cc1-n1nc(-c2c(C)nc3c(O)cccn3c2=O)cc1C
 : 31, 22
- Cc1cccc(N(C)c2cc(N3CCCC3C(=O)N3CCC(O)(Cc4ccccc4)CC3)ncn2)c1 (centres undefined)
 : 1, 0
- O=C(O)[C@H]1C[C@H](C(=O)Nc2ccc(F)cc2)CN(C2CCCCC2)C1
 : 0, 0
- COc1ccc(N2CC34C=CC(O3)C(C(=O)NC(C)(C)CO)C4C2=O)c(OC)c1 (centres undefined)
 : 0, 10
- CC(C)(C)c1cc2nc(C(=O)NC3CC3)cc(-c3ccccc3F)n2n1
 : 12, 16
- O=C(Nc1cccc(OC(F)(F)F)c1)C1CSC2(c3ccccc3)CCC(=O)N12 (centres undefined)
 : 8, 5
- COc1cccc(C(c2c(O)cc(C)n(Cc3cccnc3)c2=O)N2CCN(CCO)CC2)c1 (centres undefined)
 : 10, 3
- COC(=O)c1ccc(Cn2c(-c3nnc(C)o3)cc3ccccc32)cc1
 : -7, -7
- O=c1c(Sc2ccc([N+](=O)[O-])cc2)c(O)cc(-c2ccccc2)n1-c1ccccc1
 : 6, 9
- CCc1nc2c(OCc3cc(Cl)cc(Cl)c3)cccn2c1N(C)C(=O)Nc1ccccc1OC
 : -10, -16
- O=C(O)Cc1ccc(S(=O)(=O)N2CCc3ccccc3C2)s1
 : 4, 3
- O=S(=O)(NC1CCSc2ccccc21)c1ccc(Cl)s1 (centres undefined)
 : 10, 11
- c1ccc(Cn2cccn2)c(CN2CCCn3cncc3C2)c1
 : 11, -1
- CCCc1cc(=O)n(-c2ccc(C(=O)O)cc2)[nH]1
 : -4, -4
- O=C(O)c1ccc2c(c1)n(CCN1C[C@H]3CC[C@H]1C3)c(=O)n2C1CCCCC1
 : 15, 0
- CCN(CC)C(=O)C1CCCN1C(=O)Nc1ccccc1F (centres undefined)
 : -33, -34
- COc1ccc(-c2cc(CC(=O)NC3CCCCC3C)no2)cc1OC (centres undefined)
 : 6, 6
- COCCN(C(=O)CCc1ccc(Cl)cc1)c1ccncc1
 : 1, -1
- Cc1ccc(N2C(=O)CSC2c2cccc(NC(=O)C3CC3)c2)cc1C (centres undefined)
 : -5, 5
- CCOC(=O)C1(C)CCN1C(=O)c1ccc(C#N)cc1 (centres undefined)
 : -5, -5
- CCOC(=O)c1cc(-c2cccc(NC(=O)c3cccnc3SC)c2)n(-c2ccc(F)cc2)n1
 : 21, 13
- O=C(CN(CCCN1CCOCC1)S(=O)(=O)c1ccc([N+](=O)[O-])cc1)N(Cc1ccc2c(c1)OCO2)Cc1ccco1
 : 1, 19
- CC1CC(=O)c2cnc(N3c4ccccc4CC3C)nc2C1 (centres undefined)
 : 1, 37
- CC(C)CN(Cc1nccn1Cc1ccc(Cl)cc1Cl)C(=O)c1cccs1
 : 0, 13
- O=C(Cc1cc2ccccc2[nH]c1=O)NC1CCc2cc(Cl)ccc21 (centres undefined)
 : 10, 10
- Cc1nc(C(C)C)cc(N2CCN(C3CCCC3)C(=O)C2)n1
 : 4, -4

Whole records from above:
CCOC(=O)C1(C)CCN1C(=O)c1ccc(C#N)cc1 (centres undefined) in the list: NPYLR7 agonist = -5; NPYLR7 agonist max-min = -5
O=C(CN(CCCN1CCOCC1)S(=O)(=O)c1ccc([N+](=O)[O-])cc1)N(Cc1ccc2c(c1)OCO2)Cc1ccco1 in the list: NPYLR7 agonist = 1; NPYLR7 agonist max-min = 19

Next part:
Sequence of screens – NPYLR7 agonist, NPYLR7 agonist max-min
- CN(C)c1cccc(Nc2nccc3[nH]c(-c4ccccc4)nc23)c1
 : 1, -3
- Nc1nnc(SCCCOc2ccc(F)cc2)s1
 : -2, -5
- O=c1oc2ccc(Cl)cc2cc1-c1csc(Nc2ccc(F)cc2)n1
 : -3, -5
- COc1ccc(-c2nc3cc(Cl)ccc3c(=O)n2Cc2ccccc2)cc1F
 : 6, 4
- CCc1nc2c(OCc3ccccc3)cccn2c1N(C)C(=O)c1ccco1
 : 2, 7
- COc1ccc(-c2cnc(C)[nH]2)cc1Cl
 : 3, 3
- CCOc1ccc(N2C(=O)CSC2c2cccc(NS(=O)(=O)c3ccc(C(C)(C)C)cc3)c2)cc1 (centres undefined)
 : 15, 13
- O=CNCCc1nc2ccccc2n1Cc1c(Cl)cccc1Cl
 : -1, -5
- C=CCn1cc(-c2c(-c3ccccc3)ncn2[C@H](C(N)=O)C(C)C)c(C)n1
 : 0, -9
- CC1=NNc2nc3c(c(=O)n(Cc4ccc(F)cc4)c(=O)n3C)n2C1C (centres undefined)
 : -7, -11

Reformatted: results already given.
O=CNCCc1nc2ccccc2n1Cc1c(Cl)cccc1Cl
  NPYLR7 agonist: -1
  NPYLR7 agonist max-min: -5
C=CCn1cc(-c2c(-c3ccccc3)ncn2[C@H](C(N)=O)C(C)C)c(C)n1
  NPYLR7 agonist: 0
  NPYLR7 agonist max-min: -9
CC1=NNc2nc3c(c(=O)n(Cc4ccc(F)cc4)c(=O)n3C)n2C1C (centres undefined)
  NPYLR7 agonist: -7
  NPYLR7 agonist max-min: -11

(continued)
Sequence of screens – NPYLR7 agonist, NPYLR7 agonist max-min
- O=C(O)CSc1nnc(Cc2cccnc2)n1-c1cccc(Cl)c1
 : -3, -8
- O=C(c1ccccc1)N1CCN(C(=O)c2cccc3c2NCCC3)CC1
 : -1, 0
- COc1ccccc1-c1cn2c(C(=O)NCC3CCOC3)csc2n1 (centres undefined)
 : -5, -6
- CCOCc1nn2c(=O)c(NC(=O)c3ccc(C)cc3)cnc2s1
 : -2, 1
- Cc1nn(-c2ccccc2)c(-c2ccccc2)c1C(=O)N1CCN(C)CC1
 : 14, 16
- CN(C)C1(CNC(=S)NCc2ccc3c(c2)OCO3)CCCCC1
 : 1, -1
- Cc1ccc(F)c(S(=O)(=O)N(CCN(C)C)c2ccccc2)c1
 : 2, 4
- CC(NC1CCN(c2ccc(C(=O)N(C)C)cc2)CC1)c1ccc(Cl)cc1 (centres undefined)
 : 6, 7

Screening data (PubChem BioAssay)
